From PubChem
Sfp PPTase inh = inhibitors of Bacillus subtilis Sfp phosphopantetheinyl transferase; Q9F4F7; Biochemical Sfp PPTase activity, qHTS; Potency, µM, inactives show max response, negative = inhibition, actives largely listed as inhibitors; actives 3.5% (n = 310,000); AID 1490; active = well fitted inhibition curve with a large enough effect; inconclusive = small, poorly fitted or top-dose-only effect, or another doubt; inactive = no such curve, though single readings can be large or run the other way;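 note: the enzyme is Sfp with the accession as filed and its product quenches rhodamine fluorescence; potency is the fitted concentration of half-maximal effect; 0% = enzyme reaction without inhibitor and -100% = no enzyme wells; top concentration of the series not given in the record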
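Sfp 15 nM + cpd, 15 min RT; start w/ rhodamine-CoA 5 uM, BHQ-2-YbbR 12.5 uM (final); 50 mM Hepes pH 7.6, 10 mM MgCl2, 0.01% NP-40, 0.01% BSA; read 525/598 nm at 0 and 30 min.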
ClpP mod = qHTS Assay for Activators of ClpP; ATP-dependent Clp protease proteolytic subunit (Bacillus subtilis (strain 168)), P80244; purified B. subtilis ClpP, FRET peptide cleavage, 20 min; Potency, µM (titrated, usually from 57.5 µM), without a hit: at the highest dose activity change, negative = active; actives 1.9% (n = 340,000); AID 651965, 2013; active = well fitted falling curve with a large enough effect; inconclusive = small, poorly fitted or top-dose-only effect; inactive = no such curve, though single readings can be large or run the other way; note: potency is the fitted concentration of half-maximal effect; the source files actives as falling curves though it sought activators and does not explain the sign; nearly all actives have a fitted effect of over 65% in size; many hits overshoot -100%
Target sequence (P80244 whole entry, looked up): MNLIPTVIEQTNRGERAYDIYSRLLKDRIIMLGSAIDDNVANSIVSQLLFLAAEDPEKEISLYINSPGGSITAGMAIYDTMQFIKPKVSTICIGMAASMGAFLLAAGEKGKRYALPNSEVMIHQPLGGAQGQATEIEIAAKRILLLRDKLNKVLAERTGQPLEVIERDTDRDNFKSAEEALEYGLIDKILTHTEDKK
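ClpP 10 microg/mL final, pH 8 Tris/KCl buffer with BSA, glycerol, Tween-20; compound pinned in; FRET-FV substrate; RT 20 min; Ex320/Em430; ΔFRET vs ADEP 5.8 microM, DMSO, no enzyme.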
PINK1 expr mod = modulators of PINK1 expression; PINK1 immunofluorescence, high-content cytometry, 24 h; Potency, µM (doses to about 76.6 µM), without a hit: at the top dose activation (PINK1 increase), actives largely listed as activators; actives 0.2% (n = 410,000); AID 624263; active = well fitted activation curve with a large enough effect; inconclusive = small, poorly fitted or top-dose-only effect; inactive = flat fitted curve, though single readings scatter; cell line not stated here;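 note: potency is the fitted concentration of half-maximal effect; % of control where 0% means no effect; nearly all actives have a fitted effect of over 65% in size; a mitochondrial uncoupler was the plate control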
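Compound titrations (5 concentrations, 24 h) on a stable cell line; DMSO and CCCP controls. Endpoint: fixed-cell PINK1 immunofluorescence with mitochondrial, cell and nuclear markers, scanned by microplate cytometer.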
TRPV1 potentiator = potentiators of human vanilloid receptor 1 (TRPV1); Q8NER1; TRPV1-expressing cells, Fluo-8 calcium influx, capsaicin EC20 potentiation; host cell line not named in the record; control for the full effect not named in the record; potentiation, % at 8.33 µM; actives 0.02% (n = 320,000); active means potentiation above 80%; inconclusive means 30% to 80%; inactive means below 30%; note: 0% is about no effect
Target sequence (Q8NER1 whole entry, looked up): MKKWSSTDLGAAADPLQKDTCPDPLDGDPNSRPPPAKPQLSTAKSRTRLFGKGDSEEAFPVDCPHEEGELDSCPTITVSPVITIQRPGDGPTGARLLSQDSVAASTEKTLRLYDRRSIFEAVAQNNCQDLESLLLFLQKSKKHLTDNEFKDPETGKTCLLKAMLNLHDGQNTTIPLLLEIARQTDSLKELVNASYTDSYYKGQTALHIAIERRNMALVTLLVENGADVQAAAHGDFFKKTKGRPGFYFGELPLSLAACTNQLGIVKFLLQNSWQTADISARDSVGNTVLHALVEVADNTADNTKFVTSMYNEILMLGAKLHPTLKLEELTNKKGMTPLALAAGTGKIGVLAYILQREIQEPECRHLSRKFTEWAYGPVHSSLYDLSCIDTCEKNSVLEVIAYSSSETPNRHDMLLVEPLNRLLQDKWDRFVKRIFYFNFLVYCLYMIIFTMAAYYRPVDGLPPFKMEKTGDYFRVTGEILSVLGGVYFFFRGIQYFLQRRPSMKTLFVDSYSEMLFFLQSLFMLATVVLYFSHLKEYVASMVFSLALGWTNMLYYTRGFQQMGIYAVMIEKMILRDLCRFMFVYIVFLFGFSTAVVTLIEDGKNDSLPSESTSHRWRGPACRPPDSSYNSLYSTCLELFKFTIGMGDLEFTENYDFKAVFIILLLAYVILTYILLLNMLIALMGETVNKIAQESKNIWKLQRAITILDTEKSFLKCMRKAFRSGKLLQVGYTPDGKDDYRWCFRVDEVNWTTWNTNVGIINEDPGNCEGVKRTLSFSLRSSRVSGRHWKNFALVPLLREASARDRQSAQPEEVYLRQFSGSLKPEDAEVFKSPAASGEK
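Fluo-8 calcium influx in TRPV1-expressing cells, kinetic read (ex 480/em 520 nm). Compound added and read 3 min for agonist activity, followed by capsaicin at EC20 final and 2 min further read for enhancement.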
TRPML1 blocker = inhibitors of human TRPML1 channel; AID 624415; actives 0.02% (n = 390,000); TRPML1-inducible cells, Ca2+ dye fluorescence, FDSS; stronger effect = lower value; inhibition of EC80 agonist-evoked calcium signal; activity change, negative = inhibition, % (no concentration beside the values); Q9GZU1; in the data active means activity change below about -50%; inconclusive means about -30% to -50%; inactive means above about -30%;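 note: stimulus is agonist 54-4 at its EC80 concentration; % is set by controls: 0 for no effect and ±100 for the full control effect; compound concentration not given in the record; the text of the record puts the active cut at -80%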
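TRPML1-DL cells, Tet-induced overnight (~16 h, 37 °C) at 1,500 cells/well, were loaded with Ca8 no-wash dye plus quencher for 45-90 min at room temperature. Compounds were pinned during FDSS kinetic reading; agonist 54-4 at EC80 (4 uM final) then added.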
TRPML1 agonist = human mucolipin-1 channel agonism; Q9GZU1; actives 0.12% (n = 410,000); TRPML1-expressing cells, Ca2+ dye fluorescence, FDSS; host cell line not named in the record; reference of the full effect not given here; AID 624414; activation, % (test concentration not listed); in the data active = activation above about 50%; inconclusive = about 30% to 50%; inactive = below about 30%; note: 0% is about no effect; the text of the record puts the active cut at 80%
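Agonist activity was taken from a 110 s kinetic Ca2+ dye read on the FDSS after pinning compounds onto TRPML1-DL cells. The cells were seeded at 1,500/well with Tet inducer, incubated about 16 h, then dye-loaded at room temperature.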
Menin MLL FP FL = displaces fluorescein MLL peptide from human menin; FP activity change, % at 61.4 µM; 290,000 tested, under 10 active; Fluorescence polarization, fluorescein-MLL peptide displacement from menin; AID 1766; inconclusive = falling polarisation curve, or a change in total fluorescence; inactive = total fluorescence flat and polarisation flat or rising; no compound was filed as active; the % refers to the polarisation; negative = inhibition;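 note: % of control where 0% means no effect; inhibitors lower the polarisation; unlabelled MLL peptide was the positive control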
Numbers without * were called inactive; [ ] = another dose, or the depositor's remark.

COc1ccccc1Cn1ccn(Cc2c(F)cccc2Cl)c(=O)c1=O was read as ClpP mod -2.0%, PINK1 expr mod 0.8%, TRPML1 blocker -2 and TRPML1 agonist 2.2.
For O=C(O)c1ccc(COc2ccc3c(c2)CCC3)cc1 the results were Sfp PPTase inh 4%, PINK1 expr mod 0.2%, TRPV1 potentiator 3, TRPML1 blocker 1, TRPML1 agonist -0.5 and Menin MLL FP FL 0.9.
Cc1cn2c(=O)cc(COc3ccc(NC(=O)c4cccc(F)c4)cc3)nc2s1 was read as ClpP mod -21%, PINK1 expr mod 1.5%, TRPML1 blocker 13 and TRPML1 agonist -0.7.
`C#CCN(C[C@H]1[C@H](OC(=O)Nc2c(C)noc2C)[C@H](OC(=O)Nc2c(C)noc2C)C[C@@H](C(=O)OC)[C@H]1C(=O)OC)S(=O)(=O)c1ccc(C)cc1` gave ClpP mod -3.0%, PINK1 expr mod 4.4%, TRPML1 blocker 12 and TRPML1 agonist 1.2.
Cc1ccc(-c2c[n+](Cc3ccc(Cl)c(Cl)c3)c3n2CCC3)cc1 was read as Sfp PPTase inh -22%, ClpP mod -0.6%, PINK1 expr mod inconclusive, TRPV1 potentiator -3, TRPML1 blocker 46, TRPML1 agonist 1.7 and Menin MLL FP FL 1.3.
For N#Cc1ccccc1OCC(=O)NC1CCCCC1 the results were ClpP mod -1.6%, PINK1 expr mod -0.7%, TRPML1 blocker 20 and TRPML1 agonist -0.4.
`NC(=O)c1cc(C(=O)c2ccc(Cl)cc2)c[nH]1` gave Sfp PPTase inh 15%, PINK1 expr mod -1.8%, TRPV1 potentiator 14, TRPML1 blocker -4, TRPML1 agonist 0.2 and Menin MLL FP FL -11.
Screening CCCCC(=O)Nc1ccc2oc(-c3cccnc3)nc2c1 returned Sfp PPTase inh 1%, ClpP mod 18µM*, PINK1 expr mod 0.3%, TRPV1 potentiator 5, TRPML1 blocker inconclusive, TRPML1 agonist -0.1 and Menin MLL FP FL -0.2.
For CCOC(=O)c1c(-c2cccc([N+](=O)[O-])c2)csc1NC(=O)CCCOc1ccccc1 the results were Sfp PPTase inh inconclusive, ClpP mod -0.9%, PINK1 expr mod 0.2%, TRPV1 potentiator inconclusive, TRPML1 blocker -13, TRPML1 agonist 24 and Menin MLL FP FL 12.
Screening O=C(O)C1=NN(c2cc(Cl)c(S(=O)(=O)O)cc2Cl)C(=O)C1 returned PINK1 expr mod -3.3%, TRPML1 blocker -5 and TRPML1 agonist 0.9.
O=S(=O)(c1ccc2c(c1)OCCO2)N1CCN(Cc2ccccc2)CC1 was read as Sfp PPTase inh 7%, ClpP mod 1.5%, PINK1 expr mod -0.5%, TRPV1 potentiator -16, TRPML1 blocker -4, TRPML1 agonist -1.8 and Menin MLL FP FL -0.4.
CCn1c(CSc2nnc(-c3cccnc3)n2-c2ccccc2C)nc2cc(C(=O)O)ccc21 was read as Sfp PPTase inh inconclusive, TRPV1 potentiator 2 and Menin MLL FP FL -4.8.
Screening CCC/C(=C1/c2ccccc2C(=O)N1c1ccccc1)c1ccc2c(c1)OCO2 returned ClpP mod -6.9%, PINK1 expr mod 14%, TRPV1 potentiator 2, TRPML1 blocker 24 and TRPML1 agonist -0.3.
Screening CCCCNC(=O)Cc1cc(=O)[nH]c(=O)[nH]1 returned Sfp PPTase inh 7%, ClpP mod 0.0%, PINK1 expr mod 2.6%, TRPV1 potentiator 0, TRPML1 blocker 22, TRPML1 agonist -0.5 and Menin MLL FP FL 4.7.
For CN1CCN(CC(O)COCc2ccc3c(c2)OCO3)CC1 (configuration not stated) the results were Sfp PPTase inh 16%, ClpP mod -2.4%, PINK1 expr mod 0.8%[38.3 µM], TRPV1 potentiator -42, TRPML1 blocker -9, TRPML1 agonist 0.8 and Menin MLL FP FL -0.7.
`Cc1cc(/C=N/Nc2ncnc(N)c2[N+](=O)[O-])c(C)n1-c1ccccc1` gave Sfp PPTase inh inconclusive, PINK1 expr mod 17%, TRPV1 potentiator -15, TRPML1 blocker 13, TRPML1 agonist 1.0 and Menin MLL FP FL -3.4.
COc1ccc(C(=O)OCC(=O)Nc2ccc(OC(F)F)cc2)c(OC)c1 was read as Sfp PPTase inh 6%, ClpP mod -0.7%, PINK1 expr mod -1.3%, TRPV1 potentiator 1, TRPML1 blocker 8, TRPML1 agonist 2.6 and Menin MLL FP FL -2.8.
`Cc1oc(-c2cccc(Br)c2)nc1Cn1c(=O)cc(-c2ccccc2)c2c(C)nn(C)c21` gave ClpP mod -7.5%, PINK1 expr mod 3.2%, TRPML1 blocker -9 and TRPML1 agonist 1.8.
Screening COc1ccc(NC(=O)N2CCc3ccccc3C2)c(OC)c1 returned Sfp PPTase inh 5%, ClpP mod -0.3%, PINK1 expr mod -0.4%, TRPV1 potentiator -1, TRPML1 blocker 28, TRPML1 agonist 0.5 and Menin MLL FP FL 1.3.
Screening Cc1ccc(-c2csc(=S)n2CC(=O)OCC(=O)NC(C)C(C)C)cc1 (configuration not stated) returned Sfp PPTase inh 4%, ClpP mod 1.1%, PINK1 expr mod 3.2%[38.3 µM], TRPV1 potentiator -4, TRPML1 blocker 46, TRPML1 agonist 1.7 and Menin MLL FP FL 6.4.
`O=C(CN(c1cccc(C(F)(F)F)c1)S(=O)(=O)c1ccccc1)N1CCOCC1` gave Sfp PPTase inh 7%, ClpP mod -0.7%, PINK1 expr mod -0.7%, TRPV1 potentiator -12, TRPML1 blocker -9, TRPML1 agonist -0.3 and Menin MLL FP FL -0.1.
For CCOC(=O)c1sc2nc(SC)nc(-c3ccc(Cl)cc3)c2c1N the results were Sfp PPTase inh -2%, ClpP mod 2.2%, PINK1 expr mod 27%, TRPV1 potentiator -8, TRPML1 blocker 5, TRPML1 agonist -0.1 and Menin MLL FP FL 2.5.
Screening COc1cc(NC(=O)Nc2nnc([C@@H]3C[C@H](O)[C@@H](CO)O3)s2)cc(OC)c1OC returned ClpP mod -0.3%, PINK1 expr mod 3.2% and TRPML1 agonist -0.4.
Screening CCOc1ccccc1NC(=O)CN1C(=O)COc2ccc(S(=O)(=O)N3CCCCC3)cc21 returned ClpP mod 1.1%, PINK1 expr mod 2.0%, TRPML1 blocker -7 and TRPML1 agonist 4.3.
Screening O=C(Cn1nnc(-c2ccccc2Cl)n1)N1CCN(S(=O)(=O)c2ccc(Cl)cc2)CC1 returned Sfp PPTase inh 16%, ClpP mod -2.9%, PINK1 expr mod 0.9%, TRPV1 potentiator -9, TRPML1 blocker 0, TRPML1 agonist 3.1 and Menin MLL FP FL 2.2.
`O=C(CN1CCCCCC1)Nc1ccc(Br)cc1Br` gave Sfp PPTase inh 8%, ClpP mod 1.3%, PINK1 expr mod -0.1%, TRPV1 potentiator -11, TRPML1 blocker 26, TRPML1 agonist 0.4 and Menin MLL FP FL 0.2.
O=C(NC(=O)c1ccccc1)NC(=O)c1ccccc1 was read as Sfp PPTase inh 11%, ClpP mod 0.8%, PINK1 expr mod 1.4%, TRPV1 potentiator -21, TRPML1 blocker -15, TRPML1 agonist 0.8 and Menin MLL FP FL 2.5.
For c1ccc(CCNc2ccc3nncn3n2)cc1 the results were Sfp PPTase inh -14%, ClpP mod -21%, PINK1 expr mod 2.6%, TRPV1 potentiator -14, TRPML1 blocker -1, TRPML1 agonist -0.3 and Menin MLL FP FL 5.1.
Screening Cc1cccc(C(=O)Nc2cc3c(cc2C)n(C)c(=O)n3C)c1 returned ClpP mod -2.8%, PINK1 expr mod -0.3%, TRPML1 blocker -16 and TRPML1 agonist -0.5.
Screening COc1ccccc1NC(=O)c1ccc(SCC(=O)NCc2ccccc2Cl)c([N+](=O)[O-])c1 returned Sfp PPTase inh -22%, ClpP mod 1.5%, PINK1 expr mod 9.1%, TRPV1 potentiator -22, TRPML1 blocker -1, TRPML1 agonist -0.5 and Menin MLL FP FL 1.8.
Screening CC1CCN(C(=O)COC(=O)c2c[nH]c3ccccc23)CC1 returned PINK1 expr mod -1.7%, TRPV1 potentiator 1, TRPML1 blocker -9 and TRPML1 agonist 1.3.
Screening Cc1ccccc1NC(=O)c1cccc2c1C(=O)N(C1CCCCC1)C2 returned Sfp PPTase inh 19%, ClpP mod 0.7%, PINK1 expr mod 0.0%, TRPV1 potentiator -10, TRPML1 blocker -2, TRPML1 agonist -0.3 and Menin MLL FP FL 5.4.
CC(C)OC(=O)c1ccc(NC(=O)CSc2nc3ncccc3[nH]2)cc1 was read as Sfp PPTase inh 11%, ClpP mod -1.9%, PINK1 expr mod 0.5%, TRPV1 potentiator 15, TRPML1 blocker -6, TRPML1 agonist -0.7 and Menin MLL FP FL -2.6.
Screening Cc1ccc(-c2ccc(=O)n(CCC(=O)NCCc3ccccc3)n2)cc1 returned ClpP mod inconclusive, PINK1 expr mod -4.0%, TRPML1 blocker 4 and TRPML1 agonist 2.3.
`Cc1ccccc1SCC(=O)OCC(=O)NCc1ccccc1` gave PINK1 expr mod 5.9%, TRPML1 blocker -10 and TRPML1 agonist 0.9.
Screening Cc1cc(=O)oc(C)c1C(=O)Nc1ccc2ncccc2c1 returned Sfp PPTase inh 5%, ClpP mod -3.1%, PINK1 expr mod -1.3%, TRPV1 potentiator -2, TRPML1 blocker 5, TRPML1 agonist 18 and Menin MLL FP FL inconclusive.
COc1cccc(CN(C(=O)c2ccc([N+](=O)[O-])cc2)C2CCS(=O)(=O)C2)c1 (configuration not stated) was read as Sfp PPTase inh 5%, ClpP mod 0.2%, PINK1 expr mod 1.4%, TRPV1 potentiator 4, TRPML1 blocker -5 and TRPML1 agonist 0.7.
Screening COc1cc(OC)cc(C(=O)NNC(=S)NC(=O)c2cccnc2)c1 returned Sfp PPTase inh 1%, ClpP mod -1.1%, PINK1 expr mod 0.5%, TRPV1 potentiator 5, TRPML1 blocker 27, TRPML1 agonist 1.5 and Menin MLL FP FL 1.9.
`Cc1cc(=O)c2cc(C(=O)Nc3ccccc3)ccc2[nH]1` gave ClpP mod -12%, PINK1 expr mod 0.2%, TRPML1 blocker -5 and TRPML1 agonist -0.7.
Screening O=C(NCCN1CCOCC1)c1cccc(Cl)c1 returned Sfp PPTase inh -11%, ClpP mod 1.3%, PINK1 expr mod -3.5%[38.3 µM], TRPV1 potentiator 2, TRPML1 blocker 0, TRPML1 agonist -0.7 and Menin MLL FP FL 2.3.
